HPGD inh = inhibitors of human 15-hydroxyprostaglandin dehydrogenase (HPGD); P15428; purified HPGD, NADH fluorescence kinetic, PGE2 substrate; Potency, µM, without a hit: top-dose activity change, negative = inhibition, hits mostly inhibitors; 150,000 tested, 4.3% active; active = well fitted inhibition curve with a large enough effect (not every such curve was filed as active); inconclusive = small, poorly fitted or top-dose-only effect, or another doubt; inactive = no such curve, though single readings can be large or run the other way;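 further: top concentration of the series not given in the record; plate controls included wells without enzyme; inactives centre near -10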
Target sequence (P15428 whole entry, looked up): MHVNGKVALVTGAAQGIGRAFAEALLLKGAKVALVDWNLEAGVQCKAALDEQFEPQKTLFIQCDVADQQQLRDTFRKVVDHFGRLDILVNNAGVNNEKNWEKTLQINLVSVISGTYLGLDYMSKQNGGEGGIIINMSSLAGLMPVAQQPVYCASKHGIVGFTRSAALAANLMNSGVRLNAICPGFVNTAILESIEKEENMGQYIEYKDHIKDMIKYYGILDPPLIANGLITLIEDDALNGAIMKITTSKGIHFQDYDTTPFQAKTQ
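20 nM HPGD preincubated 15 min at room temperature with compound in 50 mM Tris-HCl pH 8, 0.01% Tween 20. Started with 1 mM NAD+ and 30 uM prostaglandin E2; NADH fluorescence (360/450 nm) read 5 times over 30-s intervals, last minus first.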
Starred values were filed as active, the others as inactive; ? = inconclusive; & = joins results of further samples. On the % scale 0 is the no-effect control and ±100 the full control effect; potency means the concentration at half of the fitted maximal effect.

SMILES	HPGD inh
O=C(COc1ccc2oc(-c3ccccc3)cc(=O)c2c1)NCc1ccco1	?
CCOc1ccccc1CNS(=O)(=O)c1ccc2[nH]c(=O)sc2c1	-22%
Cc1ccccc1-n1c(SCc2csc(Nc3ccccc3)n2)nnc1-c1cccnc1	-14%
CN(C)c1ccnc2sc(C(=O)NCc3ccccc3)c(N)c12	?
O=C(NC1CCCc2ccccc21)C1CCN(S(=O)(=O)c2cccc(C(F)(F)F)c2)CC1 (configuration not stated)	-10%
c1ccc(-c2cc(-c3nn4c(-c5ccco5)nnc4s3)c3ccccc3n2)cc1	?
CSc1cccc(NC(=O)CN(c2ccccc2)S(=O)(=O)N(C)C)c1	-3%
CCn1c2ccccc2c2cc(NC(=O)CSc3nnnn3-c3ccccc3)ccc21	-5%
CCOCCn1c(C(C)C)nc2ccccc21	3%
COc1ccc(C2N(c3ccc(Cl)cc3)C(=O)C3CCCN32)cc1 (configuration not stated)	-11%
COc1cc(OC)cc(-n2nnnc2SCC(=O)N2CCCc3ccccc32)c1	-18%
O=c1c(-c2ccccc2)[n+]([O-])c2ccccc2n1O	-16%
C/C(=N\NC(=O)c1ccc(NS(=O)(=O)c2cccs2)cc1)c1ccccc1	-17%
OC(CN(c1ccccc1)c1ccccc1)Cn1cnc2ccccc21 (configuration not stated)	-7%
Cc1cc(=O)n2[nH]cnc2n1	-6%
O=C(C1CC1)N1CCN=C1SCc1ccccc1	-9%
COC(=O)c1ccccc1NC(=O)CSc1n[nH]c(C)n1	-12%
Cn1c(=O)n(C)c2cc(/C=N/NC(=O)c3cccc(Br)c3)ccc21	?
COC(=O)C1=C(C)OC(N)=C(C#N)C1c1ccsc1 (configuration not stated)	-18%
COc1ccc(/C=C2\SC(N3CCc4ccccc4C3)=NC2=O)cc1	?
O=C(Nc1cccc(O)c1)c1cc(S(=O)(=O)N2CCCC2)ccc1Cl	-7%
O=C(CNC(=O)OCc1ccccc1)Oc1cc2oc(=O)cc(-c3ccccc3)c2cc1Cl	?
O=C(Cc1cccs1)NCc1cn2ccccc2n1	?
CC(=O)c1cc(CN2C(=O)CCC2=O)cs1	-8%
CCN(CC)CCCNC(=O)CCc1ccccc1	-5%
COC(=O)CSc1nnc(CNC(=O)Cc2ccccc2)n1C	-9%
COC(=O)c1[nH]c2cccc(Cl)c2c1NC(=O)CN1CCCCC1C (configuration not stated)	?
Cc1ccc(S(=O)(=O)N2CCCCC2)cc1C(=O)Nc1ccc2cn[nH]c2c1	2%
COc1ccccc1NC(=O)CSc1nnc(C)n1CCc1ccccc1	-13%
CCOC(=O)c1nnn(-c2nonc2N)c1COc1c(C=O)cccc1OC	-5%
Fc1ccc(-c2cc3nc4c(c(N5CCOCC5)n3n2)CCCC4)cc1	-26%
O=C(Nc1ccccc1F)N(CCCN1CCOCC1)Cc1cc2cc3c(cc2[nH]c1=O)OCCO3	?
Cc1c(NC(=O)OCCNC(=O)COc2c(Cl)cccc2Cl)sc(=S)n1C	-14%
CCOC(=O)N1CCC(NC(=O)Cn2ncc3ccccc32)CC1	-2%
CSc1nc2ccccc2cc1/C=C(\C#N)c1ccc(Cl)cc1Cl	-14%
COc1ccccc1NC(=O)/C=C/C(N)=O	-27%
Cc1ccc2c(c1)nnn2C1CCN(C(=O)NC23CC4CC(CC(C4)C2)C3)CC1	-3%
CCOc1ccc(C2=C(C=C(C#N)C#N)C(c3ccccc3)c3ccccc3O2)cc1 (configuration not stated)	-3%
COCCCN(C(=O)Nc1cccc(Cl)c1)C(C)c1ccccn1 (configuration not stated)	6%
O=C(c1ccc(CN2CCOCC2)cc1)N1CCN(c2cccc(Cl)c2)CC1	-2%
COc1ccc(C)cc1NC(=O)CSc1nnc(COc2ccc(C)cc2)n1Cc1ccco1	-23%
Cc1cccc2cc(CN(Cc3cccs3)C(=S)NCc3ccco3)c(=O)[nH]c12	-7%
O=C(/C=C/c1ccc(Cl)cc1Cl)NCc1ccco1	16µM*
O=C(COC(=O)c1cc([N+](=O)[O-])ccc1NCc1ccccc1)NC1CCCCC1	-11%
CCCCC1=CC2=C(c3ccco3)C(=O)C(C)(OC(=O)c3ccc(OC)cc3)C(=O)C2=CN1Cc1ccccc1 (configuration not stated)	-8%
Cc1ccc(NC(=O)NC2CCCN2S(=O)(=O)c2ccc(Cl)cc2)cc1 (configuration not stated)	-10%
CCC(CC)C(=O)N=C1SC2CS(=O)(=O)CC2N1CCc1ccc(OC)cc1 (configuration not stated)	-13%
COc1ccc(CCN2C(=O)c3[nH]nc(-c4ccccc4O)c3C2c2cccc(Cl)c2)cc1 (configuration not stated)	-8%
O=S(=O)(c1ccc(F)cc1)N1CCN(c2ncnc3c2cnn3-c2ccccc2)CC1	-29%
Cc1noc(C)c1COc1ccc(C(=O)OCC(=O)NC23CC4CC(CC(C4)C2)C3)cc1	?

Further records follow.
SMILES	HPGD inh
CCOC(=O)C1(C(F)(F)F)N=C(c2cccnc2)OC(N2CCOCC2)=N1 (configuration not stated)	-15%
O=C1Nc2ccccc2OC1CC(=O)N1CCN(c2cccc(C(F)(F)F)c2)CC1 (configuration not stated)	-19%
COc1cccc2c1OC1(C)CC2/C(=C(\C)O)C(=O)N1 (configuration not stated)	-5%
CC1CCOC(c2coc3ccccc3c2=O)O1 (configuration not stated)	-15%
CCC(C(=O)O)N1C(=O)/C(=C/c2cccn2C)SC1=S (configuration not stated)	?
Cc1cccc(C)c1NC(=S)NC(=O)CCc1ccccc1	-12%
CC(C)(C)n1ncc2c(=O)n(CC(=O)c3ccccc3)cnc21	-16%
O=C(/C=C/c1ccccc1[N+](=O)[O-])Nc1cccnc1	-8%
CCS(=O)(=O)NCc1csc(C)n1	-5%
N#Cc1c(NC(=O)CCN2C(=O)c3ccccc3C2=O)oc(-c2ccccc2)c1-c1ccccc1	-14%
COC(=O)CSc1nnnn1-c1cccc2ccccc12	-26%
Cc1ccccc1OCC(O)Cn1c(Br)nc2c1c(=O)n(C)c(=O)n2C (configuration not stated)	-9%
Cc1cc(=O)n(CCC(=O)O)c2ccccc12	-19%
Clc1ccccc1N/N=C/c1ccc2c(c1)OCO2	?
COc1cc(OC)c(-n2cc(-c3ccc(Cl)cc3)[nH]c2=O)cc1Cl	7.1µM*
O=C(Nc1ccc(-c2nnc(-c3ccccc3)o2)cc1)C1CCCO1 (configuration not stated)	?
C=CCn1c(=O)/c(=C\c2ccsc2)s/c1=C(/C#N)C(=O)NCCN1CCOCC1	-14%
COc1cc(NC(=O)C(F)(F)F)cc(OC)c1	-3%
Cc1ccc(SCCC(=O)Nc2ccc(OCc3ccccc3)cc2)cc1	-1%
O=C(NCc1ccncc1)Nc1ccccc1	-11%
COCCNC(=O)c1ccc2c(c1)nc(C)n2-c1cc(OC)c(OC)c(OC)c1	14µM*
COc1ccccc1NC(=O)CN(c1ccc(C23CC4CC(CC(C4)C2)C3)cc1)S(C)(=O)=O	-4%
Cc1ccc(C(=O)CSc2cnc3ccccc3n2)cc1C	22µM*
CCOC(=O)C1=NN(c2ccc([N+](=O)[O-])cc2)CC1C(=O)OC (configuration not stated)	-11%
CC(C)(C)OC(=O)N/N=C/c1c[nH]c2ccccc12	-11%
COc1cccc(NC(=O)CN2C(=O)C3(OCCCO3)c3ccccc32)c1	0%
O=C(O)/C=C/C(=O)NNC(=O)c1ccccc1Br	?
O=C(COC(=O)C(Cc1ccccc1)NC(=O)c1ccccc1)c1ccccc1 (configuration not stated)	-11%
O=C(CCC(=O)N/N=C/c1ccc(Br)s1)NCc1ccccc1	-2%
O=c1[nH]c(=O)n([C@H]2C[C@H](O)[C@@H](CO)O2)cc1F	-14%&-2%&-2%
CC(C)CC(C(=O)NCC1CCCO1)N(C(=O)Cn1nnc(-c2ccc(F)cc2)n1)c1ccccc1F (configuration not stated)	-7%
O=C(N/N=C\c1ccc([N+](=O)[O-])o1)c1ccc(O)cc1	-27%
COc1cc(C(=O)NCc2ccc(-c3nc4ccccc4o3)cc2)cc(OC)c1OC	?
Cc1[nH]c2ccc(Br)cc2c(=O)c1CN1CCCCC1	-1%
CCCCSc1nc(C)cc(C)c1S(=O)(=O)c1ccccc1C	-26%
COc1ccc(/C=N/NC(=O)c2ccc(Br)o2)cc1Cn1cc([N+](=O)[O-])cn1	?
CCn1cc(Br)c(C(=O)N(C)Cc2ccccc2)n1	-11%
CCOC(=O)c1c(C(C#N)C#N)cc(C)nc1C	-15%
CCOCCCNC(=O)c1ccc(Br)cc1	?
O=C(NCCN1CCOCC1)C(=O)NCC1OCCN1C(=O)c1ccc(Cl)cc1 (configuration not stated)	-3%
Nc1ncnc2c1ncn2C1CC(O)C(CO)O1 (configuration not stated)	-11%&-8%
CCOc1ccc(C(=O)Nc2ccncc2)cc1	-18%
Cc1ccc(-n2nnnc2SCc2nnc(-c3ccccc3Br)o2)c(C)c1	-22%
CC(=O)c1cc2c(cc1NC(=O)CN1CCN(c3ccc(F)cc3)CC1)OCO2	-5%
CCOc1cc(CNc2ccc(N3CCCC3)cc2)cc(Cl)c1OC	-13%
CC(=O)NCCC(Cc1ccccc1)c1ccco1 (configuration not stated)	-11%
CC(C)n1ncc(C(N)=O)c1N	-10%
CC(Sc1ncnc2ccccc12)C(=O)Nc1ccc2c(c1)OCO2 (configuration not stated)	-8%
COCC(=O)NC1CCN(C(=O)Nc2ccc(Br)cc2)CC1	-6%
CCc1nnc(NC(=O)CSc2nnc(-c3ccco3)n2C)s1	-3%

Ordered by the number under HPGD inh (low to high): three from the list above
smiles	HPGD inh
CC(C)n1ncc(C(N)=O)c1N	-10%
CC(Sc1ncnc2ccccc12)C(=O)Nc1ccc2c(c1)OCO2 (configuration not stated)	-8%
COCC(=O)NC1CCN(C(=O)Nc2ccc(Br)cc2)CC1	-6%

Ordered by length of the SMILES (rising): part of the list above.
SMILES	HPGD inh
CCOc1ccc(C(=O)Nc2ccncc2)cc1	-18%
CC(=O)NCCC(Cc1ccccc1)c1ccco1 (configuration not stated)	-11%
CCOc1cc(CNc2ccc(N3CCCC3)cc2)cc(Cl)c1OC	-13%
CC(=O)c1cc2c(cc1NC(=O)CN1CCN(c3ccc(F)cc3)CC1)OCO2	-5%

(next part)
SMILES	HPGD inh
CC1CCN(c2nc(-c3ccco3)c3c(c2C#N)CC(C)(C)OC3)CC1	?
Cc1cnn(CCC(=O)NNC(=S)Nc2ccc(F)cc2)c1	-9%
COc1ccccc1NC(=S)N(CCCN1CCOCC1)Cc1ccccn1	-4%
N#Cc1cccc(NC(=O)CCn2ccnc2)c1	-13%
CCOC(=O)N1CCN(C(c2ccc(C(C)C)cc2)c2sc3nc(C)nn3c2O)CC1 (configuration not stated)	-11%
CCOc1ccccc1-n1c(SCC(N)=O)nnc1-c1cccnc1	-13%
O=C(O)c1ccc(NC(=O)C2CCCCC2)cc1	-3%
CCOC(=O)N1CCC(n2c(SCC(=O)OCc3ccccc3)nc3ccsc3c2=O)CC1	-9%
O=C(C1CC(c2ccc(F)cc2)=NO1)N1CCc2ccccc2C1 (configuration not stated)	20µM*
Cc1nc2ccc(S(=O)(=O)NCC(=O)NCCN3CCCCC3C)cc2s1 (configuration not stated)	-5%

4 records picked at random from those above, as already listed:
SMILES	HPGD inh
CCOC(=O)N1CCN(C(c2ccc(C(C)C)cc2)c2sc3nc(C)nn3c2O)CC1 (configuration not stated)	-11%
Cc1cnn(CCC(=O)NNC(=S)Nc2ccc(F)cc2)c1	-9%
CCOc1ccccc1-n1c(SCC(N)=O)nnc1-c1cccnc1	-13%
CC1CCN(c2nc(-c3ccco3)c3c(c2C#N)CC(C)(C)OC3)CC1	?

The list goes on.
SMILES	HPGD inh
CCOC(=O)C1CCCN(C(=O)c2ccc(C)cc2O)C1 (configuration not stated)	14µM*
COc1cc(C(=O)Nc2ccc(S(=O)(=O)N3CCc4ccccc43)cc2)cc(OC)c1OC	-3%
CC(C)OCCCNC(=O)c1cccs1	-14%
Cc1n[nH]c(=S)c2nn(-c3cccc(Cl)c3)c(C)c12	-20%
CCOc1ccc(C(=O)Nc2cc(C)on2)cc1OCC	-4%
N#Cc1c(C(F)(F)F)cc(C2CC2)[nH]c1=O	?
COC(=O)CCC(=O)OC1(C)C(=O)C=C2C=C(C3CC3)N(C3CCCC3)C=C2C1=O (configuration not stated)	-5%
O=C(OCN1C(=O)c2ccccc2C1=O)c1cccs1	-28%
COc1ccc(C(=O)/C=C/Nc2ccc([N+](=O)[O-])cc2C)cc1OC	-8%
Cn1cccc1C1(C(F)(F)F)NCCNC1=O (configuration not stated)	-8%

Single values from the results shown:
Entry for COc1ccc(C(=O)/C=C/Nc2ccc([N+](=O)[O-])cc2C)cc1OC in HPGD inh: -8%
Entry for Cc1n[nH]c(=S)c2nn(-c3cccc(Cl)c3)c(C)c12 in HPGD inh: -20%

The listing continues:
SMILES	HPGD inh
Cc1ccc(NC(=O)/C(=C/c2cccc(Br)c2)NC(=O)c2ccco2)cc1	-14%
O=C(O)c1ccccc1NCc1ccncc1	?
Cc1ccc2oc(-c3cccc(NC(=O)/C=C/c4cccc([N+](=O)[O-])c4)c3C)nc2c1	-14%
CC(=O)c1cccc(NC(=O)N2CCCC2C(=O)NCc2ccc(F)cc2)c1 (configuration not stated)	-17%
CC(=C\C(=O)O)/C(=C/c1ccccc1)C(=O)O	-7%
COc1cc(NC(=S)Nc2cccnc2)cc(OC)c1OC	-10%
CCOC(=O)CN1NC2(CCCC(C)C2)NC1=S (configuration not stated)	-15%
CC(=O)Nc1ccc(Nc2ncc([N+](=O)[O-])c(Nc3ccc(NC(C)=O)cc3)n2)cc1	-12%
COc1ccc(-c2nnc(SCC(=O)NC(C)C)n2CC2CCCO2)cc1OC (configuration not stated)	-10%
COCCn1c(=O)c(-c2ccccc2)nc2cnc(OCc3ccccc3)nc21	?
O=S(=O)(N1CCOCC1)n1c(Cc2ccccc2)nc2ccccc21	-13%
COc1ccc(Cl)cc1NC(=S)NCc1ccc(S(N)(=O)=O)cc1	-7%
COc1cc(-n2c(C)nc3cc(C(=O)NCCN4CCOCC4)ccc32)cc(OC)c1OC	-5%

Some of the compounds tested; rates above refer to the full screens.
